Assay outcomes from PubChem.
VDR inh: blocks the human vitamin D receptor | VDR-SRC2-3 peptide fluorescence polarization, 2 h | Potency, µM, inactives show max response, negative = inhibition, most hits filed as inhibitors | P11473 | 0.93% of 400,000 active; active = well fitted inhibition curve with a large enough effect; inconclusive = small, poorly fitted or top-dose-only effect, or another doubt; inactive = no such curve, though single readings can be large or run the other way; note: series mostly up to about 120 µM
Target sequence (P11473 whole entry, looked up): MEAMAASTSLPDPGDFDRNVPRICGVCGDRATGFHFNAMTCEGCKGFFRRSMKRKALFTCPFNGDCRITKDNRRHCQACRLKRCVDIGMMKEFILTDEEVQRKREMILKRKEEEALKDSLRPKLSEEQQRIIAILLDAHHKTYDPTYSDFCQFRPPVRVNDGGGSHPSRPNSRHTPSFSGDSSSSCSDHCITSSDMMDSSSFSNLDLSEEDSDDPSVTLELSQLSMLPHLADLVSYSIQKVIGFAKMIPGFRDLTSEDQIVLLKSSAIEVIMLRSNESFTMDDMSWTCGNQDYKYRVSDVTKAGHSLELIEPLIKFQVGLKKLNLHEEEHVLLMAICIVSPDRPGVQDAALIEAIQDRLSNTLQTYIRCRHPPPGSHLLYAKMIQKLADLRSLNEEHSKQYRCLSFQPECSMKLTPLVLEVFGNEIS
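Two reagent solutions held at 4 deg C in the dark were dispensed, compounds pinned at 23 nl, and the mixture incubated 2 h at room temperature. Read-out: fluorescence polarization of VDR–SRC2-3 peptide binding.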
* hit, by the source's call; ? = inconclusive; & = joins results of further samples; [ ] = another dose, or the depositor's remark. % is set by controls: 0 for no effect and ±100 for the full control effect; potency is the fitted concentration of half-maximal effect. These rows are one share of the data (hit frequency here may not be typical).

Start of the data: the first 18 entries, to show the layout:
SMILES	VDR inh
Clc1cccc(N2CCNCC2)n1	11%
COC(=O)C1=C(c2cccc(Cl)c2)C[C@@H]2CC[C@H]1N2C(=O)N1CCCC1	-18%
O=C(CN1CCCCC1)c1ccccc1Cl	?
Cc1ccc(NP(=O)(Oc2ccccc2F)Oc2ccccc2F)cc1	10%
CCOc1ccc(CN(CCc2ccc3c(c2)OCO3)Cc2ccc(OC)c(Br)c2)cc1	-9%
O=[N+]([O-])c1cc(F)c(N2CCCCCC2)cc1N1CCNCC1	-5%
N#C/C(=C\c1ccc(O)cc1)C(=O)O (tested in a mixture with another compound)	-12%
O=C1CN=C(c2ccc(F)cc2)c2oc3ccccc3c2N1	-10%
S=C(S)N1CCNCC1	?
CC(C)N1CCN(Cc2cccc3c2OCO3)CC1CCO (stereo not drawn)	-9%
CCc1ccc(CN2CCN(Cc3cc(Br)ccc3O)CC2)cc1	-9%
CC1=CC(=C2C(=O)NC(=S)NC2=O)C=C(C(F)(F)F)N1C	11%
COc1ccccc1CCNCc1cccc(C(F)(F)F)c1	-8%
O=C(O)c1cc([N+](=O)[O-])cc([N+](=O)[O-])c1O	2%
CCc1nnc(NS(=O)(=O)c2ccc(N=Cc3c(O)n(-c4ccc(Cl)cc4)c(=O)[nH]c3=O)cc2)s1	-9%
O=C1CC(=O)N(c2ccc3c(c2)OCO3)C(=O)N1	-3%
CN=C(SCc1ccccc1)c1c(O)n(C)c(=O)n(C)c1=O	-5%
Cc1c(N=Cc2c(O)n(C)c(=O)[nH]c2=O)c(=O)n(-c2ccccc2)n1C	-16%

All compounds of this part, previewed entries included:
SMILES	VDR inh
Clc1cccc(N2CCNCC2)n1	11%
COC(=O)C1=C(c2cccc(Cl)c2)C[C@@H]2CC[C@H]1N2C(=O)N1CCCC1	-18%
O=C(CN1CCCCC1)c1ccccc1Cl	?
Cc1ccc(NP(=O)(Oc2ccccc2F)Oc2ccccc2F)cc1	10%
CCOc1ccc(CN(CCc2ccc3c(c2)OCO3)Cc2ccc(OC)c(Br)c2)cc1	-9%
O=[N+]([O-])c1cc(F)c(N2CCCCCC2)cc1N1CCNCC1	-5%
N#C/C(=C\c1ccc(O)cc1)C(=O)O (tested in a mixture with another compound)	-12%
O=C1CN=C(c2ccc(F)cc2)c2oc3ccccc3c2N1	-10%
S=C(S)N1CCNCC1	?
CC(C)N1CCN(Cc2cccc3c2OCO3)CC1CCO (stereo not drawn)	-9%
CCc1ccc(CN2CCN(Cc3cc(Br)ccc3O)CC2)cc1	-9%
CC1=CC(=C2C(=O)NC(=S)NC2=O)C=C(C(F)(F)F)N1C	11%
COc1ccccc1CCNCc1cccc(C(F)(F)F)c1	-8%
O=C(O)c1cc([N+](=O)[O-])cc([N+](=O)[O-])c1O	2%
CCc1nnc(NS(=O)(=O)c2ccc(N=Cc3c(O)n(-c4ccc(Cl)cc4)c(=O)[nH]c3=O)cc2)s1	-9%
O=C1CC(=O)N(c2ccc3c(c2)OCO3)C(=O)N1	-3%
CN=C(SCc1ccccc1)c1c(O)n(C)c(=O)n(C)c1=O	-5%
Cc1c(N=Cc2c(O)n(C)c(=O)[nH]c2=O)c(=O)n(-c2ccccc2)n1C	-16%
O=C(CN1CCN(C(=O)COc2cccc(F)c2)CC1)Nc1ccc(Cl)c(C(F)(F)F)c1	-6%
O=C1NC(=O)C(Cc2ccccc2)C(=O)N1	12%
Cc1cc(/C=C2\C(=O)NC(=S)N(C)C2=O)c(C)n1C1CCCCC1	-7%
Cc1ccnc(NC(=O)CCCc2ccc(N(CCCl)CCCl)cc2)n1	11%
COc1ccc(C(=O)C2CCCN(Cc3ccc(C)s3)C2)c(OC)c1 (stereo not drawn)	18%
CC1CCCC(NC(=O)COC(=O)c2cn(C)c3ccccc23)C1C (stereo not drawn)	5%
Nc1nnc(CCN2CCCCC2)s1	2%
CCOC(=O)c1c(/N=C/c2c(O)n(-c3cccc(C)c3)c(=O)[nH]c2=O)sc2c1CCCC2	-24%
Cc1ccc(C(O)P(=O)(Oc2ccccc2)Oc2ccccc2)cc1 (stereo not drawn)	-5%
Cc1cc(/C=C2\C(=O)NC(=O)N(c3ccc(Br)cc3)C2=O)c(C)n1-c1cc(C(=O)O)cc(C(=O)O)c1	?
O=C1CC=C2C3CC4N(CCC45c4cc(O)c(O)cc4N1C25)CC3=CCBr (stereo not drawn)	10%
Cc1ccc(N)c(N)c1	7%&-13%
CCCN1CCO[C@@H]2c3cc(O)ccc3OC[C@H]21	4%&3%&-2%&11%&-1%
CC(C)(O)C1C2OC(=O)C1[C@]1(O)CC3O[C@@]34C(=O)OC2[C@@]14C (stereo partly drawn)	5%
O=P(O)(O)COc1ccccc1O	-2%
CC(C)c1c(CN(C)C(C)Cc2ccccc2)n(C)n(-c2ccccc2)c1=O (stereo not drawn)	-1%
O=C(NC(=C(Cl)Cl)P(=O)(c1ccccc1)c1ccccc1)c1ccccc1	-2%
COc1ccc(CN2CCN(c3ccccc3)CC2)c(C)c1C	3%
CCC(=NCCCn1ccnc1)c1c(O)n(-c2ccccc2)c(=O)[nH]c1=O	12%
CCOc1ccccc1CN1C2CCC1CC(c1ccc(C)cc1)C2 (stereo not drawn)	-6%
CC1CC(C)CC(C)C(O)C(C#N)=CC=CCC(C2CCCC2C(=O)O)OC(=O)CC(O)C(C)C1 (stereo not drawn)	-23%
CC1CCCN1CCC(C(N)=O)(c1ccccc1)c1ccccc1 (stereo not drawn)	2%
CCCCn1c(O)c(C(C)=NCc2ccco2)c(=O)[nH]c1=O	0%
c1cc2c(cc1N1CCCCC1)C1CC2CCN1 (stereo not drawn)	9%
CC1CN=C(NCCc2ccccc2)S1 (stereo not drawn)	-10%
C[C@@H]1Cc2c(Cl)cc(C(=O)N[C@H](Cc3ccccc3)C(=O)O)c(O)c2C(=O)O1	-7%
CCCCCCCC/C=C\CCCCCCCC(=O)OC[C@@H](COP(O)(O)=S)OC	18µM*
Cc1ccc(-n2c(CNCc3ccc(F)cc3)nc3ccccc3c2=O)cc1	7%
COC(=O)C1=C(c2ccc(OC(F)(F)F)cc2)C[C@@H]2CC[C@H]1N2C(=O)NC(C)C	-15%
CC(=NC(C)c1ccccc1)c1c(O)[nH]c(=O)[nH]c1=O (stereo not drawn)	24%
COc1cc(CC(=O)OCC2=C[C@H]3[C@@H]4C(C)(C)[C@]4(OC(C)=O)[C@H](OC(=O)Cc4ccccc4)[C@@H](C)[C@]3(O)[C@@H]3C=C(C)C(=O)[C@@]3(O)C2)ccc1O	-10%
C[C@H](NC(C)(C)C)C(=O)c1cccc(Cl)c1	10%
NC(Cc1ccccc1)c1nn[nH]n1 (stereo not drawn)	-4%
COC(=O)C1=C(c2ccc(OC(F)(F)F)cc2)C[C@@H]2CC[C@H]1N2C(=O)NCCCOC(C)C	-19%
CN1CCN(c2ccc(C(N)=O)cc2N)CC1	-5%
CCOC(=O)N(c1ccccc1)P1(=S)OCCO1	79µM*
CC(C)CNC(=O)/C=C/C=C/CCCCCC/C=C/c1ccc2c(c1)OCO2	9%
C=COCCn1c(C)c(C(C)=O)c2cc(O)ccc21	11%
S=P1(Oc2ccccc2)Nc2ccccc2N1	-3%
O=C1NC(=S)NC(=O)C1C1CCCCC1	?
CCOC(=O)C1SC2(C(F)(F)F)CC1(O)c1c(C)cc(C)nc1O2 (stereo not drawn)	4%
CCOc1cc(C=O)ccc1O	5%
Next compounds.
SMILES	VDR inh
CC(NC(=O)Cc1cccc2ccccc12)C(=O)N1CCC(=O)CC1 (stereo not drawn)	-3%
COP(=O)(OC)C(Nc1ccccn1)c1ccccc1 (stereo not drawn)	3%
CCOC(=O)/C=C(C)/C=C/CC(C)CCCC(C)C (stereo not drawn)	0%
CNC(=O)NC(O)C(Cl)(Cl)Cl (stereo not drawn)	-4%&6%
O=C(CN1CCCCC1)c1ccc(F)cc1	-11%
Cc1ccc2c(c1)CC1(CN2C)C(=O)NC(=O)N(c2cc(C)ccc2C)C1=O (stereo not drawn)	-4%
COC(=O)C1=C(c2ccc(Cl)c(C(F)(F)F)c2)C[C@@H]2CC[C@H]1N2C(=O)N1CCC(C)CC1	5%
COc1cc(C)c(CN2CC=C(c3ccc(F)cc3)CC2)cc1C	10%
CC(C)c1ccc(O)c(CN2CCN(c3ccccc3)CC2)c1	10%
Cc1ccc(NP(=O)(Oc2ccccc2)Oc2ccccc2)cc1	32%[activator]
O=C(c1ccc(Cl)cc1)N1CCC2(CC1)OCCO2	1%
OCC1(CO)COC(c2cccnc2)N1 (stereo not drawn)	4%
O=C(Nc1ccc2c(c1)OCCO2)c1cccn(Cc2cccc([N+](=O)[O-])c2)c1=O	21%
NC1(C(=O)O)CCCc2ccc(N(CCCl)CCCl)cc21 (stereo not drawn)	0%
COC(=O)C[C@@](O)(CCC(C)(C)O)C(=O)O[C@@H]1C(OC)=C[C@]23CCCN2CCc2cc4c(cc2[C@@H]13)OCO4	-7%
C=CCN1CCc2cccc3c2C1Cc1ccc(O)c(O)c1-3 (stereo not drawn)	?
CC1N(O)C2CCCCCC2N1O (stereo not drawn)	-1%
O=c1cc(C(F)(F)F)c2cc3c4c(c2o1)CCCN4CCC3	-11%
Cc1ccc(-n2c(C)cc(/C=C3/C(=O)NC(=O)N(Cc4ccco4)C3=O)c2C)cc1	-2%
O=C(COc1ccccc1)N1CCN(CCN2C(=O)c3cccc4cccc(c34)C2=O)CC1	-12%
c1ccc2sc(NC3=NCCN3)nc2c1	-13%
CCC1([N+](=O)[O-])COP(N)(=O)OC1 (stereo not drawn)	-8%
COc1ccc(N2C(=O)/C(=C/c3ccco3)C(=O)NC2=S)cc1	?
COc1ccc(CC(C)NC2CCCCCC2)cc1 (stereo not drawn)	-13%
C[C@@H]1C[C@@H](O)[C@@]2(O)[C@]13CC(=O)OC[C@]2(C)[C@@](C)(O)C(=O)C3	4%
CCN1C[C@]2(CO)CC[C@H](OC)[C@@]34C5C[C@H]6[C@H](OC)C5[C@](O)(C[C@H]6OC)[C@@](O)(C(OC)C23)[C@@H]14 (stereo partly drawn)	-14%
COc1ccc(C(=O)C2CCCN(Cc3cccc(C)n3)C2)c(OC)c1 (stereo not drawn)	-1%
COc1ccc(N2C(=O)NC(=O)/C(=C/c3cccc(OC(=O)c4cccs4)c3)C2=O)cc1Cl	?
CN1C2CCC1CC(OC(=O)c1cccc(O)c1)C2 (stereo not drawn)	-18%
CC(C)NS(=O)(=O)c1ccc(OCC(=O)N2CCN(C)CC2)cc1	-6%
CCC(C(N)=O)N1CCCC1=O (stereo not drawn)	13%&16%
CCN1CCN(Cc2cc3c(cc2[N+](=O)[O-])OCO3)CC1	-13%
CN1CCC(n2nccc2N)CC1	-10%
N/C(=N\[N+](=O)[O-])NCCCC(NC(=O)CNC(=O)c1ccccc1)C(=O)O (stereo not drawn)	-20%
CC(=O)N1Cc2cnnn2-c2ccccc2C1(C)C#N (stereo not drawn)	6%
CCN(CC)P(=O)(Oc1ccccc1)Oc1ccccc1	-12%
CCN(CC)CCN1C(=O)CN=C(c2ccccc2F)c2cc(Cl)ccc21	?
O=C(c1ccc(Cl)cc1)C1CCCN(Cc2cccc3cccnc23)C1 (stereo not drawn)	3%
Cc1ccc(N/N=C/c2c(O)n(-c3ccccc3)c(=O)[nH]c2=O)cc1	-24%
Cn1cccc1/C=C1\C(=O)NC(=O)N(Cc2ccccc2)C1=O	?
COC[C@H]1OC(=O)c2coc3c2[C@@]1(C)C1=C(C3=O)[C@H]2CCC(=O)[C@@]2(C)C[C@H]1OC(C)=O	32µM*
CCC(C)C1NC(=O)C2CCCN2C(=O)C(CC(C)C)OC(=O)CCNC(=O)C(C)N(C)C(=O)C(C(C)C)N(C)C1=O (stereo not drawn)	-11%
C=C1C(=O)O[C@@H]2C[C@@H](C)[C@@H]3C4OC4C(=O)[C@@]3(C)[C@@H](O)[C@H]12 (stereo partly drawn)	-8%
C[C@]12CCC3C(CC[C@H]4C[C@H](O)CC[C@]34C)C1CCC2=O (stereo partly drawn)	2%
Cc1cc(/C=C2\C(=O)NC(=O)N(c3cccc(F)c3)C2=O)c(C)n1-c1ccc(C(=O)O)c(Cl)c1	10%
COc1ccc(C2(C#N)CCN(C)CC2)cc1	-4%
CCCCC/C=C\C/C=C\C/C=C\C/C=C\CCCC(=O)NC1CC1	?
COc1ccc(CC(=O)Nc2ccc(C#N)c(Cl)c2)cc1S(=O)(=O)N1CCOCC1	10%
CC(=O)O[C@@H]1[C@H]2CC[C@@H]3[C@]1(C[C@@H](OC(C)=O)[C@@]1(O)C([C@@H]4O[C@@H]4C1(C)C)[C@]3(C)O)C[C@@]2(C)O (stereo partly drawn)	0%
O=C1NC(=O)C(=Cc2coc3ccccc3c2=O)C(=O)N1	?
C[C@]12CC[C@H](O)CC1=C([N+](=O)[O-])CC1C2CC[C@@]2(C)C1CC[C@@H]2O (stereo partly drawn)	-23%
CN1C[C@H](CO)C=C2c3cccc4[nH]cc(c34)C[C@H]21	3%
Cc1ccc2nc3sc(=O)sc3nc2c1	8.9µM*
CCOC(=O)C1(CCOc2ccccc2)CCN(Cc2cccc(O)c2)CC1	-13%
CC(C)COP(=O)(OCC(C)C)C(O)c1cccnc1 (stereo not drawn)	-13%
O=C1Nc2ccc(Br)cc2C(c2ccccc2)=NC1O (stereo not drawn)	1%
CC(C)(C)c1ccc(CSc2cnn(C(C)(C)C)c(=O)c2Cl)cc1	-9%
O=C(Nc1ccc(Oc2ccc(Cl)cc2)c(Cl)c1)c1cc(I)cc(I)c1O	?
CSC(=S)NCc1c[nH]c2ccccc12	0%&6%

In a second layout: entries from further up
O=C(Nc1ccc(Oc2ccc(Cl)cc2)c(Cl)c1)c1cc(I)cc(I)c1O
  VDR inh: ?
CSC(=S)NCc1c[nH]c2ccccc12
  VDR inh: 0%&6%
